# NPYLR7 ag: activates Aedes aegypti NPYLR7 receptor. HEK293T NPYLR7/Galpha15, GCaMP6s calcium fluorescence. 270,000 tested, 0.15% active. activation, % at 10 µM; in the data active = activation above about 40%;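 note: 0% = vehicle and 100% = reference agonist at the receptor; some compounds past the cut are filed as inactive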
# NPYLR7 ag max-min: further read-out of NPYLR7 ag, marked with its call; activation, %; measured here: Max-Min RFU normalised activation; some inactives read as strong as hits;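 span of the calcium signal over five minutes; 0% = vehicle and 100% = native peptide agonist; compound fluorescence can raise it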
# An asterisk follows results filed as active; & = joins results of further samples. The list is partial (hit frequency here may not be typical).
SMILES,NPYLR7 ag,NPYLR7 ag max-min
CS(=O)(=O)Oc1ccc(CN(Cc2ccccc2)C(=O)c2cccc(Cl)c2)cc1,4,6
Cc1cc(OCC(=O)ON=C(N)c2ccncc2)c(C)cc1Br,-8,-13
O=C(Nc1ccc2c(c1)C(=O)NC2=O)c1ccc(-c2nc3ccccc3s2)s1,-2,-6
CCc1nc2ccc(C(=O)NCCc3c[nH]c4ccccc34)cn2c1N(C)CCN1CCOCC1,16,15
COc1ccc2cc(-c3[nH]ncc3CN(Cc3nccn3C)C(C)C)ccc2c1,-5,-9
Cc1cccc(NC(=O)c2c(N)c(C(=O)c3ccccc3)n3ccccc23)c1,-6,-10
Cn1cccc1CN(Cc1ccccc1)Cc1ccc(C(C)(C)O)o1,-1,6
O=[N+]([O-])c1ccc2[nH]c(O)c(N=Nc3ccc4c(Cl)cc(Cl)c(O)c4n3)c2c1,7,4
O=S(=O)(c1cccc(Br)c1)N1CCCN(c2ncc(C(F)(F)F)cc2Cl)CC1,-2,-5
COc1ccc(CC(=O)OCc2cc(-c3ccc4c(c3)OCO4)on2)cc1OC,-2,-2
Cn1c(CN2CCC3(CC2)Nc2ccccc2C(=O)N3CCO)nc2ccccc21,0,10
FC(F)(F)c1ccc(-c2noc(CN3CCC(OCc4ccccn4)CC3)n2)cc1,6,3
O=C(c1ccccc1Cl)N1N=C2CCCCC2C1(O)C(F)(F)F (stereo unspecified),1,3
Cn1nc(-c2cccc(NS(=O)(=O)c3cccs3)c2)ccc1=O,-1,-1
COc1ccc(NC(=O)CNC(=O)C2CC2(c2ccccc2)c2ccccc2)cc1 (stereo unspecified),-7,-11
CNC(=O)CNC(=O)Nc1ncc(Cc2ccc(F)cc2F)s1,2,3
O=C(O)C1Cc2nc[nH]c2CN1C(=O)CCSCc1ccc(F)cc1 (stereo unspecified),3,-8
CCc1cc(Oc2ccccc2C(C)C)nc(SCc2ccccc2Cl)n1,18,16
Cc1nc2scc(-c3cccs3)c2c(=O)o1,16,7
COc1cccc(NC(=O)CN2CN(c3ccccc3)C3(CCN(C(=O)c4ccccc4Cl)CC3)C2=O)c1,-1,8
Cc1ccc(Oc2cc(N3CCC(C)CC3)ncn2)cc1,-4,5
O=C(CN1CSCC1=O)Nc1cccc(-c2nc3ccccc3[nH]2)c1,13,6
COc1ccc(C2=NCN(c3ccc(C)cc3)C(=S)N2)cc1,-9,-11
CCn1cc(CN(C(=O)c2cnc3ccccn3c2=O)C(C)C)cn1,12,10

# Compound profiles, as listed above. Screens in order: NPYLR7 ag	NPYLR7 ag max-min
# `Cc1nc2scc(-c3cccs3)c2c(=O)o1` is entered as 16	7
# `O=C(O)C1Cc2nc[nH]c2CN1C(=O)CCSCc1ccc(F)cc1` (stereo unspecified) is entered as 3	-8
# `CCc1cc(Oc2ccccc2C(C)C)nc(SCc2ccccc2Cl)n1` is entered as 18	16
# `O=C(CN1CSCC1=O)Nc1cccc(-c2nc3ccccc3[nH]2)c1` is entered as 13	6
# `Cc1ccc(Oc2cc(N3CCC(C)CC3)ncn2)cc1` is entered as -4	5

# The list continues:
SMILES,NPYLR7 ag,NPYLR7 ag max-min
CCCNC(=O)CSc1nc2c([nH]c3ccccc32)c(=O)n1CC,-1,-3
Cc1ccc(-c2nc(NCc3ccccc3)c3ccc(Cl)cc3n2)cc1,4,9
C=c1ccccc1=c1[nH]/c(=C\C=C\c2ccccc2)c(=O)o1,-10,-16
CN(C)CCCN(C(=O)c1ccno1)c1nc2c(Cl)cccc2s1,0,20
Cc1nc(Nc2ccc(NC(=O)C(C)C)cc2)cc(OC(C)C)n1,10,2
Cc1ccsc1C=NNC(=O)c1cccc([N+](=O)[O-])c1,2,-8
COc1ccc(CN2CCN(c3cc(Oc4cc(C)ccc4F)ncn3)CC2)cc1,13,13
COc1ncc(Cl)c(NC(C)c2ccccc2C)n1 (stereo unspecified),-3&-15,-6&-15
c1ccc(-c2nc3c(c(N4CCN(CC5CCOC5)CC4)n2)CCC3)cc1 (stereo unspecified),1,2
NCCN1CCN(c2nc(Cc3ccc(Cl)cc3)ns2)CC1,1,3
O=C1CN(S(=O)(=O)c2ccc(F)c(Cl)c2)CC2c3cc(Cl)ccc3CCN12 (stereo unspecified),26,22
Cc1cc(CNC(=O)c2ccc(-n3cnnn3)cc2)c2[nH]c(C)c(C)c2c1,0,-3
Cc1cc(C(=O)N2CCCC(C(=O)Nc3cccc(-c4cc5ccccc5[nH]4)c3)C2)nn1C (stereo unspecified),11,4
CCC(C)N(Cc1ccc(OS(=O)(=O)c2ccc(OC)cc2)cc1)C(=O)NC(C)(C)C (stereo unspecified),2,5
COC(=O)c1nsc(Cl)c1Cl,-1,6
COc1ccc(S(=O)(=O)n2nc(C)c(S(=O)(=O)N3CCCCC3)c2C)cc1,0,-2
O=C(O)C/C(=C/c1cc(Cl)c2c(c1)OCCCO2)c1nc2ccccc2o1,6,5
CCCS(=O)(=O)Nc1ccc(-c2ccc3nnc(C)n3n2)cc1,-13,-9
COc1cccc(-n2cc(CN(C)C(=O)c3cn(CC4CCCO4)nn3)cn2)c1 (stereo unspecified),4&-17,0&-17
CCCCN1C(=O)c2cccc3c(NC(=O)C4CCCCN4S(=O)(=O)c4cccs4)ccc1c23 (stereo unspecified),9,6
COc1ccccc1CNC(=O)C1(C)CCN1Cc1ccc(OC(C)C)cc1 (stereo unspecified),4,1
CC1C(=O)N(CC2CCCCO2)C(=O)N1c1ccccc1 (stereo unspecified),-5,-8
Cc1ccc(CN(CCc2ccccc2)C(=O)CN(CCN2CCOCC2)C(=O)C2CCCC2)o1,5,4
COc1cn(CC(=O)Nc2cccc(C(F)(F)F)c2)c(CSc2nc(C)cs2)cc1=O,-5,-9
CCCCn1c(CN(C)Cc2ccccn2)cnc1S(=O)(=O)CC,10,4
Cc1ccc2[nH]c(=O)cc(C(=O)NC3CC(=O)N(CC4CCCCC4)C3)c2c1 (stereo unspecified),5,4
Brc1ccc(C=NN2CCN(C3c4ccccc4-c4ccccc43)CC2)s1,2,0
CCOC(=O)CCC(=O)Nc1cccc(C2SCC(=O)N2c2ccc(C)cc2C)c1 (stereo unspecified),5,15
Cc1c(C(=O)N(C)Cc2ccc(F)cc2)sc(=O)n1Cc1ccccn1,-7,-6
COc1c(Br)cc(Cl)cc1S(=O)(=O)NCCc1ccccc1,3,4
COC(CNc1nc(Nc2ccc(C)c(C)c2)c2cnn(-c3ccccc3)c2n1)OC,0,-2
COc1ccc2c3c(cccc13)NN=C2C,0,7
O=C(NCCNC(=O)[C@H]1CCCN1C(=O)C1CCC1)c1ccc(F)cc1,21,16
N#CCCN1CC(O)CN(C(=O)Cc2ccccc2)CC1=O (stereo unspecified),0,12
CCn1c(C2CC(=O)N(c3cccc(SC)c3)C2)nc2ccccc21 (stereo unspecified),-1,-1
CCn1nc(CC(C)C)cc1C(=O)N1Cc2cnn(CCO)c2C1,11,9
Cc1[nH]nc(Nc2ccccc2)c1N,-12,-18
c1ccc(-c2ccc(OC3CCCCO3)cc2)cc1 (stereo unspecified),3,5
CN1C(=O)C(CC(=O)NCCN2CCc3ccccc32)N(C)C1=O (stereo unspecified),6,-2
Cc1nn(C)c(C)c1CC(=O)NC1CCN(C(=O)OC(C)(C)C)CC1,1,0
Cc1ccc(-c2nc(C(=O)N3CC(C)OCC3C)cs2)cc1 (stereo unspecified),-3,-6
Cc1ccccc1-n1nc(C)c(CNC(=O)c2csc(-c3ccc(C(F)(F)F)cc3)n2)c1C,-8,-20
O=C(NC1CC1)C(c1ccccc1)N1CCCC1c1ccsc1 (stereo unspecified),2,1
CCOC(=O)N1CCN(C(c2cccc(OC)c2)C2Sc3nc(CC)nn3C2=O)CC1 (stereo unspecified),-6,-10
Cc1cccc(-n2nc(C)c(CCC(=O)N3CCC4(CCOC4=O)C3)c2C)c1C (stereo unspecified),-2,4
c1ccc(-c2ccc(N=c3oc4ccccc4cc3-c3nc4ccccc4[nH]3)cc2)cc1,0,6
CCOC(=O)C1=C(c2ccccc2)NC(=O)NC1c1cc(OC)ccc1OC (stereo unspecified),10,11
O=C(N[C@@H]1CCCc2ccccc21)C1CC=CCC1C(=O)N1CCc2c([nH]c3ccccc23)C1 (stereo partly specified),-16,-24
CCOC1CC(NC(=O)C(NC(C)=O)C2CCCC2)C12CCC2 (stereo unspecified),11,9
c1cncc(-c2nc(NCC3(N4CCOCC4)CCCCC3)c3ccccc3n2)c1,1,1
CCn1nc(-c2cccc(OC)c2)ccc1=O,5,-2
O=C(Cc1cccs1)Nc1cccc(C2SCC(=O)N2c2ccc(C(F)(F)F)cc2)c1 (stereo unspecified),12,18
COc1ccccc1CCNC(=O)c1ccccc1N1CCC(NC(=O)Cc2ccccc2)CC1,-3,3
COC(=O)c1ccc(CN2C(=O)C(C)(C)ON=C2c2ccc(C)cc2)o1,-2,-4
COc1cc(C(=O)NCc2ccc(-c3ncc(-c4ccc(N5CCOCC5)cc4)[nH]3)cc2)cc(Cl)n1,1,9
O=C(CCCCCN1C(=O)c2cccc3cccc(c23)C1=O)Nc1nccs1,7,9
CC(C)OC(C)c1nnc(SCC(=O)O)n1-c1ccccc1 (stereo unspecified),19,7
NS(=O)(=O)c1ccc(NC(=O)CCCn2nc(-c3ccccc3)ccc2=O)cc1,10,12
CCCC(=O)Nc1c(-c2cccs2)c(=O)c2ccccc2n1C,0,2
CCn1nnc2c(=O)n(CC(=O)N(C)c3ccccc3)cnc21,1,18

# The closing 5 compounds of the part above lead into the next:
SMILES,NPYLR7 ag,NPYLR7 ag max-min
O=C(CCCCCN1C(=O)c2cccc3cccc(c23)C1=O)Nc1nccs1,7,9
CC(C)OC(C)c1nnc(SCC(=O)O)n1-c1ccccc1 (stereo unspecified),19,7
NS(=O)(=O)c1ccc(NC(=O)CCCn2nc(-c3ccccc3)ccc2=O)cc1,10,12
CCCC(=O)Nc1c(-c2cccs2)c(=O)c2ccccc2n1C,0,2
CCn1nnc2c(=O)n(CC(=O)N(C)c3ccccc3)cnc21,1,18
COc1ccc(Nc2nccc3c2ncn3C)cc1OC,-5,-12
CC(Cc1ccc2c(c1)OCO2)CN1CCn2c(nnc2C(N)=O)C1 (stereo unspecified),1,1
COc1cc(C(C)=O)ccc1OCC(O)Cn1nc(C)nc1C (stereo unspecified),-1,-1
Cc1ccnc(N2CCN(c3c4c(c(C#N)c5nc6ccccc6n35)CCC4)CC2)c1,9,3
CC(C(=O)Nc1ccc(C(N)=O)cc1)n1nnc(-c2ccc(F)cc2)n1 (stereo unspecified),1,15
O=c1nc(-c2cccs2)oc2cc(Cl)ccc12,6,6
CC(=O)N[C@H]1C[C@@H](c2cnc(-c3ccccn3)nc2)O[C@@H](C2CCCCC2)C1,6,4
O=C(C#Cc1ccccc1)N1CCCC(N2CCN(Cc3ccc4c(c3)OCO4)CC2)C1 (stereo unspecified),1,0
O=C(Oc1ccc(N2C(=O)C3C4C=CC(C4)C3C2=O)cc1)c1ccc([N+](=O)[O-])cc1 (stereo unspecified),0,-2
CCn1c(C2CCCN(C(=O)Cc3cnc4ccccn34)C2)nn(C)c1=O (stereo unspecified),-1,-2
CCNc1ncc(-c2nccn2CCN(C)C)cn1,10,9
CC1C(=O)N(c2ccc3c(c2)CCC3)CCN1C(=O)C1CC1 (stereo unspecified),-4,0
CCc1nc(C)c(C(=O)NCCC2=CCCCC2)o1,-1,-7
Cc1ccc(CC2CCCN2Cc2ncc[nH]2)cc1 (stereo unspecified),-4&11,-5&8
C=CCN(CC(=O)N(CCc1ccc(OC)c(OC)c1)Cc1cccs1)C(=O)c1ccc(Br)cc1,0,-3
CCn1c(CC2CCNCC2)nn(Cc2cc(C(C)C)on2)c1=O,2,-1
C=CCNC(=O)CN1CN(c2ccccc2)C2(CCN(C(=O)COC)CC2)C1=O,3,1
COC(=O)CC1SC(=O)N(CN2CCOCC2)C1=O (stereo unspecified),-10,-14
Cc1ccc(-c2[nH]ncc2CN(C)CCC2CCCCO2)cc1C (stereo unspecified),24,15
CCOC(=O)c1cn(-c2ccccc2)nc1-c1ccc(OC)c([N+](=O)[O-])c1,25,15
CCn1cnnc1CCn1cc(C(C)c2ccccc2)nn1 (stereo unspecified),-3,-2
CC(=O)N(CCN(C)C)c1nc2cc3c(cc2s1)OCO3,-8,-8
Cc1cnc(CNC(=O)c2ccc(CC3CCCNC3)cc2)cn1 (stereo unspecified),3,-1
CS(=O)(=O)c1ccccc1S(=O)(=O)Nc1cccc(Cl)c1F,4,2
COc1ccc(Cn2c(=O)c3c(n4cnnc24)-c2ccccc2CC32CCCCC2)cc1,2,-4
